Bioassay records deposited in PubChem by Broad Institute.
rRNA inh HTS: reduced GFP signal of wild-type E. coli, primary screen, bacterial rRNA inhibitor project, GFP/RFP fluorescence, OD600, single point; E. coli WT GFP vs humanized-ribosome RFP mutants, 24 h; hits give low values; DMSO median 0, no signal -100; GFP signal change (wild-type ribosome), % (concentration not given with the values); 350,000 compounds, 1.6% hits;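 active means significant combined selectivity score with lowered wild-type GFP, culture density cut under 30%, mutant RFP and density less affected; inactive means any of these conditions unmet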; further: one replicate is shown; some compounds called inactive have numbers as strong as hits
MLL AF4-AF9 inh: inhibitors of AF4 peptide binding to AF9, primary screen, biochemical, AlphaScreen, biotin-AF4 peptide, FLAG-AF9, single point. Protein AF-9 (Homo sapiens), P42568. AID 651704, 2012. 350,000 compounds, 0.47% hits. inhibition, % at 10 µM;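 active means every replicate reaching a set inhibition limit, whatever the replicate mean, cut at about 25% in these data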;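 further: 0% = plate neutral control median and 100% = total signal loss; the record names both 10 and 1 µM as test concentration; the first replicate is given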
Target sequence (P42568 whole entry, looked up): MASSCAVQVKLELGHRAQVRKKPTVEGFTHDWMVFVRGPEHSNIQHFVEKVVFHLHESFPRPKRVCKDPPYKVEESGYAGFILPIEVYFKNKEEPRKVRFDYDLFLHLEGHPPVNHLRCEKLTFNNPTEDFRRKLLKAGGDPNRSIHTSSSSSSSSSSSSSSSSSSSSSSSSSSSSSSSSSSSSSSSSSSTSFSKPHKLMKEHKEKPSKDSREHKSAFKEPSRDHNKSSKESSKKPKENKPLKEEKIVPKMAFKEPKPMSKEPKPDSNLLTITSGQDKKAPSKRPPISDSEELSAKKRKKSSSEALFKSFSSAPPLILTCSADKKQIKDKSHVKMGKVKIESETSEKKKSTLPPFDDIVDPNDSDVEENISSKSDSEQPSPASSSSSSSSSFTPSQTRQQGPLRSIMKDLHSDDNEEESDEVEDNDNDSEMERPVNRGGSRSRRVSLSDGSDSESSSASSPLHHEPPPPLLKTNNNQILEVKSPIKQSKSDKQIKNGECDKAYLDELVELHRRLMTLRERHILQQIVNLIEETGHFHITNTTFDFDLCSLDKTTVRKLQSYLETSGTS
FGF22 binding: binders of human FGF22 protein, primary screen, FGF22 synaptogenesis inhibitor project, biophysical, thermal shift, single point | Fibroblast growth factor 22 (Homo sapiens), Q9HCT0 | recombinant FGF22 thermal shift, SYPRO orange fluorescence; percent of sucrose octasulfate shift, DMSO zero | calls only at 9.99 µM | 340,000 compounds, 1.5% hits;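 active means melting point raised past a set limit in the mean and every replicate; three in four hits are not shown here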
Target sequence (Q9HCT0 whole entry, looked up): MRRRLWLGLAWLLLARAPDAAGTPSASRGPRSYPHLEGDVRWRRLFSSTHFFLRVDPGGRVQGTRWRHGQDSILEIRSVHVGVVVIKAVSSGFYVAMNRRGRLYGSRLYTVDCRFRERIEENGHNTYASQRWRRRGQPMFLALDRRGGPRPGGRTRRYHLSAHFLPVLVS
rRNA inh HTS OD600: second read-out of rRNA inh HTS, no call of its own (marks repeat the call); OD600 change, %; measured here: OD600 growth;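 optical density of the mix in the first replicate; 0 = DMSO median and -100 = no signal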
rRNA inh HTS RFP: second read-out of rRNA inh HTS, no call of its own (marks repeat the call); RFP signal change, %; measured here: RFP humanized mutant strains;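 first replicate; 0 = DMSO median and -100 = no signal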
* = called active by the depositor; i = inactive; & = joins results of further samples.

Below each compound: rRNA inh HTS | FGF22 binding | rRNA inh HTS RFP | MLL AF4-AF9 inh | rRNA inh HTS OD600
> CC(C)NC(=O)Nc1ccc2c(c1)C(=O)N([C@@H](C)CO)C[C@H](C)[C@@H](CN(C)S(=O)(=O)c1ccc(Cl)cc1)OCCCC[C@@H](C)O2
    -1.3 | i | -0.5 | 4.5 | 6.3
> O=C1OC(c2ccccc2)=CC1=Cc1ccccc1O
    -3.0 | i | 0.7 | 5.2 | -0.9
> O=c1cc(CN2CCCC2)c2ccccc2o1
    20.7 | i | 1.9 | -4.4 | 19.1
> CC(C)NC(=O)N(C)C[C@H]1Oc2ccc(NC(=O)Nc3ccc(F)cc3)cc2C(=O)N([C@@H](C)CO)C[C@H]1C
    -1.1 | i | -0.3 | -0.3 | 2.2
> CC1(C)OC(=O)C2=C(C[C@@H](CCc3ccccc3)O[C@@H]2c2ccc(F)cc2)O1
    -31.9 | i | -12.6 | -1.7 | -32.2
> CNC[C@@H]1Oc2cc(C#Cc3ccccc3)ccc2S(=O)(=O)N([C@H](C)CO)C[C@H]1C
    0.4 | i | 1.7 | 15.9 | -8.6
> COCC(=O)N1CC[C@@H]2[C@H](CO)Nc3ccc(C#Cc4cccc(F)c4)cc3[C@@H]21
    -8.9 | i | 11.4 | 0.2 | -24.2
> O=C(C[C@H]1C[C@H]2c3cc(NS(=O)(=O)c4ccc(F)cc4)ccc3O[C@H]2[C@H](CO)O1)NC1CCCCC1
    -1.9 | i | 1.2 | 0.3 | -8.4
> C[C@@H](NC(=O)C[C@H]1C[C@H]2c3cc(NC(=O)c4ccc5c(c4)OCO5)ccc3O[C@H]2[C@@H](CO)O1)c1ccccc1
    -0.1 | i | -0.8 | -1.4 | -4.5
> COc1ccccc1-c1cc(NC(C)=O)c2ncc(-c3ccccc3)n2c1
    -10.0 | i | -1.8 | 4.4 | -35.1
> C[C@H](CO)N1C[C@H](C)[C@@H](CN(C)Cc2ccncc2)Oc2cc(-c3cccnc3)ccc2S1(=O)=O
    -6.7 | i | -1.3 | 7.2 | -4.7
> C/C=C/c1ccc2c(c1)O[C@H](CN(C)C(=O)Cc1ccncc1)[C@@H](C)CN([C@H](C)CO)S2(=O)=O
    -3.9 | i | 1.5 | -0.6 | -1.3
> CCCCNCCS(=O)(=O)NCc1ccc(OC)cc1
    4.6 | i | 1.1 | -1.6 | 8.9
> C[C@H](CO)N1C[C@H](C)[C@@H](CN(C)C(=O)Nc2ccc3c(c2)OCO3)OCc2ccccc2-c2c(n(C)c3ccccc23)C1=O
    1.2 | i | 0.2 | -15.5 | -0.9
> CC(C)C[C@H]1CNC(=O)C(=O)N1C[C@@H]1CCCN1C[C@H](Cc1ccc(O)cc1)N1C[C@H](Cc2ccccc2)N(CC2CCCCC2)C(=O)C1=O
    -29.2* | i | 5.5* | 2.5 | -14.1*
> CN(C)CC(=O)N1[C@H](CO)[C@@H](c2ccc(C#CC3CCCCC3)cc2)[C@@H]1C#N
    -55.8 | i | -17.1 | -4.5 | -78.7
> COC(=O)c1ccc2nc(-c3ccc(F)cc3)c(Cc3ccccc3C(F)(F)F)n2c1
    19.6 | i | 4.7 | -1.9 | 12.8
> O=C(Nc1cccc(C(=O)N2CCCC2)c1)C1CCC1
    -9.2 | i | -1.8 | -1.5 | -8.1
> CO[C@H]1CN(C)C(=O)c2cc(NC(=O)c3ccccc3)ccc2OC[C@@H](C)N(C(=O)CN(C)C)C[C@@H]1C
    4.7 | i | -0.9 | -0.5 | 4.3
> CCS(=O)(=O)Nc1ccc2c(c1)C(=O)N(C)[C@@H]1CC[C@H](CC(=O)NCc3ccc(OC)cc3)O[C@H]1CO2
    -0.7 | i | -1.3 | -1.8 | 0.7
> O=C(OCCC12CC3CC(CC(C3)C1)C2)c1ccc(NCc2cc(O)ccc2O)cc1
    6.9 | i | 12.9 | 27.9* | 17.8
> O=C(C[C@@H]1C=C[C@@H](NC(=O)c2ccc3c(c2)OCO3)[C@@H](CO)O1)NCc1ccc(F)cc1
    -3.9 | i | -0.4 | -2.5 | -2.1
> C[C@@H]1CCCCO[C@H](CN(C)S(=O)(=O)c2cccs2)[C@@H](C)CN([C@H](C)CO)C(=O)c2cc(NC(=O)Nc3ccc(F)cc3)ccc2O1
    -1.9 | i | 2.2 | -2.3 | 2.4
> CCc1nc2c(OCc3ccc(Cl)cc3Cl)cccn2c1N(C)C(=O)c1ccccc1F
    -2.2 | i | 10.6 | 3.5 | -11.6
> C[C@H](O)C#Cc1ccc2c(c1)O[C@H](CN(C)C(=O)C1CCCCC1)[C@@H](C)CN([C@@H](C)CO)S2(=O)=O
    -0.5 | i | -1.2 | -1.5 | -6.6
> COc1ccc2c3c([nH]c2c1)[C@@H](CO)N(C(=O)c1ccncc1)CC31CCN(C(=O)NC(C)C)CC1
    4.3 | i | -0.7 | -21.4 | 5.0
> Cc1ccc(S(=O)(=O)Nc2ccc3c(c2)C(=O)N([C@@H](C)CO)C[C@@H](C)[C@@H](CN(C)C(=O)Nc2ccc(C(F)(F)F)cc2)OCCCC[C@@H](C)O3)cc1
    5.7 | i | -2.8 | 0.8 | 3.6
> O=C(Nc1cccc(Cl)c1)N1C[C@H]2[C@@H](c3ccccc31)[C@H](CO)N2C(=O)c1ccncc1
    -17.5 | i | 3.5 | -1.1 | -10.2
> CNC[C@H]1Oc2ccc(NC(=O)Nc3ccc(F)cc3)cc2CC(=O)N([C@@H](C)CO)C[C@H]1C
    1.6 | i | -1.0 | 1.6 | 1.9
> C[C@H](NC(=O)C[C@@H]1C=C[C@@H](NS(=O)(=O)c2cccc(F)c2)[C@@H](CO)O1)c1ccccc1
    3.6 | i | 2.0 | -13.9 | 1.8
> COC(=O)[C@]12C[C@H](CC(=O)NCCc3ccccc3OC)C(=O)N(Cc3ccc4c(c3)OCO4)C1=C[C@H](C(C)(C)C)O[C@@H]2C
    24.1 | i | 1.3 | 2.4 | 11.3
> Cc1ccc(S(=O)(=O)N[C@@H]2C=C[C@H](CC(=O)NCCCN(C)C)O[C@H]2CO)cc1
    0.7 | i | -1.3 | 0.8 | 8.1
> C[C@@H]1CN([C@H](C)CO)C(=O)c2cc(C#CC3(O)CCCC3)cnc2O[C@@H]1CN(C)Cc1cncnc1
    1.6 | i | -3.4 | -6.1 | 4.0
> C[C@@H]1CCCCO[C@@H](CN(C)C(=O)Cc2ccccc2)[C@@H](C)CN([C@H](C)CO)C(=O)c2cc(NC(=O)C3CCCCC3)ccc2O1
    6.9 | i | 2.8 | 1.1 | 1.9
> CO[C@H]1CN(C)C(=O)c2ccc(NC(=O)C3CCC3)cc2OC[C@H](C)N(C(=O)CN(C)C)C[C@@H]1C
    0.2 | i | -0.9 | 3.3 | -8.0
> C[C@H](CO)N1C[C@H](C)[C@H](CN(C)C(=O)Nc2ccc3c(c2)OCO3)OCc2cnnn2CCCC1=O
    10.5&0.0 | i | 1.5&-1.9 | -7.4&-1.5&-0.4 | 5.3&3.5
> COc1ccc2c3c([nH]c2c1)[C@@H](CO)N(C(=O)C1CC1)CC31CCN(Cc2cccc(F)c2)CC1
    -2.0 | i | -0.3 | 4.5 | -1.5
> C[C@@H]1CN([C@@H](C)CO)C(=O)CCCn2nncc2CO[C@@H]1CN(C)S(=O)(=O)c1cn(C)cn1
    7.1&2.0 | i | 1.2&-1.4 | 1.9&1.3 | 16.0&1.1
> COc1ccc(CC(N)c2csc(NC(=O)Nc3ccccc3-c3ccccc3)n2)cc1 (centres undefined)
    3.9 | i | 0.0 | 3.3 | 6.4
> O=C(C[C@@H]1C[C@@H]2c3cc(NC(=O)C4CCC4)ccc3O[C@@H]2[C@@H](CO)O1)NCc1cccc(F)c1
    -0.8 | i | -2.0 | 1.7 | -14.5
> CCC(=O)Nc1ccc2c(c1)OC[C@H](C)N(CCC(F)(F)F)C[C@@H](C)[C@H](OC)CN(C)C2=O
    -3.5 | i | -1.1 | -0.5 | -4.0
> O=S(=O)(c1ccccc1)N1C[C@H]2[C@@H](c3ccccc31)[C@H](CO)N2Cc1ccc2c(c1)OCO2
    -20.3 | i | 8.4 | 7.6 | -43.4
> O=[N+]([O-])c1ccc(C=Nc2ccccc2)cc1
    3.9 | i | -1.0 | -0.8 | 10.7
> Cc1noc(C)c1S(=O)(=O)N(C)C[C@@H]1OCCCC[C@H](C)Oc2ccc(NC(=O)c3ccccc3)cc2C(=O)N([C@H](C)CO)C[C@@H]1C
    -0.9 | i | -0.6 | 3.0 | -6.2
> CC(C)NC(=O)N(C)C[C@@H]1OCCCC[C@H](C)Oc2ccc(NS(=O)(=O)c3ccc(F)cc3)cc2C(=O)N([C@H](C)CO)C[C@@H]1C
    -4.5 | i | 0.8 | -3.3 | 5.4
> C[C@H](CO)N1C[C@H](C)[C@@H](CN(C)C(=O)c2ccccn2)Oc2ncc(C#Cc3ccccc3)cc2C1=O
    -2.6 | i | -0.3 | -5.8 | -2.3
> C[C@@H]1CCCCO[C@@H](CN(C)C(=O)C2CCCCC2)[C@H](C)CN([C@@H](C)CO)C(=O)c2cc(NS(C)(=O)=O)ccc2O1
    -1.2 | i | 0.7 | -0.2 | 14.7
> COc1ccc(S(=O)(=O)N[C@@H]2C=C[C@@H](CC(=O)N3CCC(Cc4ccccc4)CC3)O[C@H]2CO)cc1
    -20.9 | i | 19.0 | 4.2 | -37.9
> C[C@H](CO)N1C[C@H](C)[C@H](CN(C)S(=O)(=O)c2cccs2)Oc2ncccc2C1=O
    5.6 | i | -1.6 | 0.0 | 14.1
> C[C@H]1CN([C@@H](C)CO)C(=O)Cc2cc(NS(=O)(=O)c3cn(C)cn3)ccc2O[C@@H]1CN(C)C(=O)Nc1ccccc1
    1.1 | i | -0.9 | -0.2 | 2.8

(list continues)
Below each compound: rRNA inh HTS | FGF22 binding | rRNA inh HTS RFP | MLL AF4-AF9 inh | rRNA inh HTS OD600
> CCc1nc2ccc(C(=O)NCCOc3ccc(OC)cc3)cn2c1N(C)Cc1ccc(N(C)C)cc1
    -23.4* | i | 3.0* | 14.4 | -6.4*
> CCCC(=O)N1CCC2(CC1)CN[C@@H](CO)c1[nH]c3cc(OC)ccc3c12
    6.8 | i | -2.9 | 0.3 | 8.8
> CO[C@H]1CN(C)C(=O)c2cc(NC(=O)NC3CCCCC3)ccc2OC[C@@H](C)N(CCc2ccccc2)C[C@@H]1C
    -4.2 | i | 13.1 | -23.5 | -7.4
> C[C@H]1CN([C@@H](C)CO)C(=O)c2cccc(NC(=O)c3ccncc3)c2O[C@H]1CN(C)Cc1ccc2c(c1)OCO2
    1.4 | i | 0.4 | -3.4 | 8.5
> COC(=O)C[C@@H]1C=C[C@H](NC(=O)c2ccccc2)[C@@H](CO)O1
    3.3&8.3 | i | -1.5&1.8 | -0.8&-2.3 | 1.8&9.7
> CC(C)CC#Cc1ccc2c(c1)O[C@@H](CN(C)C(=O)NC(C)C)[C@H](C)CN([C@H](C)CO)S2(=O)=O
    -2.4 | i | 1.3 | 0.5 | 2.5
> C[C@H](CO)N1C[C@H](C)[C@@H](CN(C)S(=O)(=O)c2ccc([N+](=O)[O-])cc2)OCc2ccccc2-c2ccccc2C1=O
    0.0 | i | 1.1 | 4.3 | 2.7
> Cc1ccc(S(=O)(=O)N(C)C[C@@H]2Oc3ccc(NC(=O)Cc4ccccc4)cc3CC(=O)N([C@H](C)CO)C[C@@H]2C)cc1
    -1.1 | i | -0.3 | 0.1 | -3.5
> C[C@H](CO)N1C[C@H](C)[C@@H](CN(C)C(=O)Cc2ccccc2)OCCCC[C@H](C)Oc2ccc(NC(=O)c3ccncc3)cc2C1=O
    -5.2 | i | 2.2 | -3.8 | -0.9
> COc1ccc(C(C)=O)cc1CSC(=S)N1CCSCC1
    -19.5 | i | -7.6 | 0.4 | -36.7

Gathered by group, those above containing a CF3 group (3)
Below each compound: rRNA inh HTS | FGF22 binding | rRNA inh HTS RFP | MLL AF4-AF9 inh | rRNA inh HTS OD600
> COC(=O)c1ccc2nc(-c3ccc(F)cc3)c(Cc3ccccc3C(F)(F)F)n2c1
    19.6 | i | 4.7 | -1.9 | 12.8
> Cc1ccc(S(=O)(=O)Nc2ccc3c(c2)C(=O)N([C@@H](C)CO)C[C@@H](C)[C@@H](CN(C)C(=O)Nc2ccc(C(F)(F)F)cc2)OCCCC[C@@H](C)O3)cc1
    5.7 | i | -2.8 | 0.8 | 3.6
> CCC(=O)Nc1ccc2c(c1)OC[C@H](C)N(CCC(F)(F)F)C[C@@H](C)[C@H](OC)CN(C)C2=O
    -3.5 | i | -1.1 | -0.5 | -4.0

Some of the compounds tested; count on the stated rates, not on these rows.
